High-throughput results as filed in PubChem BioAssay.
EPAC1 ag val: validation of human EPAC1 agonists | 1% of 16,000 active | Potency, µM, for the others: max response, positive = active, actives largely listed as activators | O95398 | EPAC1 Rap1b BODIPY-GDP exchange, fluorescence | AID 1645883; active means well fitted activation curve with a large enough effect; inconclusive means small, poorly fitted or top-dose-only effect; inactive means no such curve, though single readings can be large or run the other way;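 further: nearly all actives have a fitted effect of over 70% in size; series mostly up to about 76 or 150 µM; scaled to a cAMP control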
Target sequence (O95398 whole entry, looked up): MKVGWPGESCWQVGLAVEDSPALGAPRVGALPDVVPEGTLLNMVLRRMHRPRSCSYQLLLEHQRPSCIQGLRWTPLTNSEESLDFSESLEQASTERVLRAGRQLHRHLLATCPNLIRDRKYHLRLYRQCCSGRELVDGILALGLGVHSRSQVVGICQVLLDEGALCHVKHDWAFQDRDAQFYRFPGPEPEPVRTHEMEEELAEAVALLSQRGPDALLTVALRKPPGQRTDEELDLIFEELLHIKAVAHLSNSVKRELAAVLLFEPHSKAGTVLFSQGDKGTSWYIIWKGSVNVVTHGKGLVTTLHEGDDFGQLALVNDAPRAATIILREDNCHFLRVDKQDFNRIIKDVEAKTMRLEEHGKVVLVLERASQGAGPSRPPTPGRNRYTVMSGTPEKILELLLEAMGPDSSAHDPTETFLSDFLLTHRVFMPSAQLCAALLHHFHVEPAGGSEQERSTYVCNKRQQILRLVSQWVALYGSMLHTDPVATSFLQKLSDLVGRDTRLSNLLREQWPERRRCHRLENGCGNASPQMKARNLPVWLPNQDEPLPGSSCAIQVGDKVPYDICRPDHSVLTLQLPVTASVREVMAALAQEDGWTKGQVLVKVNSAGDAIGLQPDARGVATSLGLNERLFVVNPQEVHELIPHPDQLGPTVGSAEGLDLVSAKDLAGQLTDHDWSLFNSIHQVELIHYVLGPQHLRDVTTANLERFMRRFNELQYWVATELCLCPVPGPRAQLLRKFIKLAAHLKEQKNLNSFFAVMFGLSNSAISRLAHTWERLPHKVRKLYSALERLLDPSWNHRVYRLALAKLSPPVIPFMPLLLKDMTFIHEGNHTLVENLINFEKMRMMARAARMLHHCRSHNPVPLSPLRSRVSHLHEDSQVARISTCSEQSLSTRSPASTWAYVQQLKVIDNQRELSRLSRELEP
Active calls of the source: *; & = joins results of further samples; [ ] = another dose, or the depositor's remark. On the % scale 0 is the no-effect control and ±100 the full control effect; potency means the concentration at half of the fitted maximal effect. An excerpt, so the mix of outcomes need not match the whole.

`COCC(=O)N1CCC[C@@]2(CCN(C(=O)Nc3ccccc3)C2)C1` gave EPAC1 ag val 6%.
For COc1ccccc1CNc1ncncc1-c1ccc(N(C)C)cc1 the results were EPAC1 ag val 4%.
NC(N)=NS(=O)(=O)c1ccc(N)cc1 was read as EPAC1 ag val -16%&-8%.
For COCCn1c(=O)c(CCc2ccccc2)nc2cnc(Oc3ccccc3)nc21 the results were EPAC1 ag val -36%.
Screening CC(=O)C[C@H]1c2ccccc2S(=O)(=O)N1C1CCCC1 returned EPAC1 ag val -17%.
For Cc1cc(C)c2c(C)ccnc2c1 the results were EPAC1 ag val 26%.
NC(=O)[C@@H]1CCCN1C(=O)CCN1Cc2ccccc2OC(c2ccccc2F)C1 (stereo partly specified) was read as EPAC1 ag val -8%.
For C(=C\c1c[nH]c2ccccc12)/c1cc[n+](C2CCCCC2)cc1 the results were EPAC1 ag val 16%.
Screening Cc1c(C(=O)NCC2COCCO2)cnn1-c1ncc2c(n1)-c1ccccc1CC2 (stereo unspecified) returned EPAC1 ag val -6%.
`CN(C)Cc1ccccc1-c1cncnc1NCc1cccnc1` gave EPAC1 ag val -164%[inhibitor].
`COc1cccc(N2[C@@H](CC(=O)O)c3ccc(/C=C/C(=O)O)cc3S2(=O)=O)c1` gave EPAC1 ag val inconclusive.
CCCN1CC(CSC)C[C@H]2c3cccc4[nH]cc(c34)C[C@H]21 (stereo partly specified) was read as EPAC1 ag val -10%.
c1cncc(CNc2ccnc(-c3ccc4c(c3)OCO4)n2)c1 was read as EPAC1 ag val -13%.
Screening CN[C@H]1CCc2cc(OC)c(OC)c(OC)c2-c2ccc(N[C@@H]3CCCCNC3=O)c(=O)cc21 returned EPAC1 ag val -9%.
Screening N#Cc1cccc(-c2nc3cnc(N4CCOCC4)nc3n(Cc3ccc(F)cc3)c2=O)c1 returned EPAC1 ag val inconclusive.
`N[C@@H](CCCP(=O)(O)O)C(=O)O` gave EPAC1 ag val -74%[inhibitor].
Screening O=C(NC1CCCCC1)[C@@H]1CC=C[C@@H]2CCN(Cc3ccc(Cl)c(Cl)c3)C(=O)[C@@H]21 returned EPAC1 ag val inconclusive.
`O=C(C[n+]1cc(Br)cc2ccccc21)c1ccc(F)cc1` gave EPAC1 ag val 7%.
CC1(CN2CCC(n3c(=O)[nH]c4ccccc43)CC2)OCc2ccccc2-n2cccc21 (stereo unspecified) was read as EPAC1 ag val inconclusive.
`O=C1CCN(Cc2cccnc2)CCN1[C@H](CO)c1ccccc1` gave EPAC1 ag val inconclusive.
`Cc1noc(C)c1CCC(=O)N1CCOc2ccc(CN3CCN(c4ccccn4)CC3)cc2C1` gave EPAC1 ag val 7%.
For O=C(O)Cc1cc2ccccc2nc1C(=O)O the results were EPAC1 ag val -12%.
For CC[N+](CC)(CC(=O)Nc1c(C)cccc1C)Cc1ccccc1 the results were EPAC1 ag val 2%&26%.
O=S1(=O)c2cccc3cccc(c23)N1CCCN1CCN(c2ccc(F)cc2)CC1 was read as EPAC1 ag val 10%.
`Cc1cc2nc3c(=O)[nH]c(=O)nc-3n(C[C@H](O)[C@H](O)[C@H](O)COP(=O)(O)OP(=O)(O)OC[C@H]3O[C@@H](n4cnc5c(N)ncnc54)[C@H](O)[C@@H]3O)c2cc1C` gave EPAC1 ag val 112µM*.
CCC(C)(C)C(=O)O[C@H]1C[C@@H](C)C=C2C=C[C@H](C)[C@H](CC[C@@H]3C[C@@H](O)CC(=O)O3)[C@H]21 was read as EPAC1 ag val -15%.
`Cc1occc1C(=O)NCCN1Cc2ccccc2OC(c2ccccc2F)C1` (stereo unspecified) gave EPAC1 ag val 5%.
Screening C=CC(C1=CC(=O)C(OC)=CC1=O)c1ccc(O)cc1 (stereo unspecified) returned EPAC1 ag val inconclusive.
`O=c1ccc2ccc(O)cc2o1` gave EPAC1 ag val inconclusive.
For Cc1c(-c2ccc(Cl)cc2)noc1C1CCN(CCc2ccccc2)CC1 the results were EPAC1 ag val 4%&5%.

An excerpt from above in order of length of the SMILES, largest number first.
`Cc1cc2nc3c(=O)[nH]c(=O)nc-3n(C[C@H](O)[C@H](O)[C@H](O)COP(=O)(O)OP(=O)(O)OC[C@H]3O[C@@H](n4cnc5c(N)ncnc54)[C@H](O)[C@@H]3O)c2cc1C` gave EPAC1 ag val 112µM*.
Screening O=C(NC1CCCCC1)[C@@H]1CC=C[C@@H]2CCN(Cc3ccc(Cl)c(Cl)c3)C(=O)[C@@H]21 returned EPAC1 ag val inconclusive.
Screening CN[C@H]1CCc2cc(OC)c(OC)c(OC)c2-c2ccc(N[C@@H]3CCCCNC3=O)c(=O)cc21 returned EPAC1 ag val -9%.
`COc1cccc(N2[C@@H](CC(=O)O)c3ccc(/C=C/C(=O)O)cc3S2(=O)=O)c1` gave EPAC1 ag val inconclusive.
Screening N#Cc1cccc(-c2nc3cnc(N4CCOCC4)nc3n(Cc3ccc(F)cc3)c2=O)c1 returned EPAC1 ag val inconclusive.
NC(=O)[C@@H]1CCCN1C(=O)CCN1Cc2ccccc2OC(c2ccccc2F)C1 (stereo partly specified) was read as EPAC1 ag val -8%.
Screening Cc1c(C(=O)NCC2COCCO2)cnn1-c1ncc2c(n1)-c1ccccc1CC2 (stereo unspecified) returned EPAC1 ag val -6%.
CCCN1CC(CSC)C[C@H]2c3cccc4[nH]cc(c34)C[C@H]21 (stereo partly specified) was read as EPAC1 ag val -10%.
For Cc1c(-c2ccc(Cl)cc2)noc1C1CCN(CCc2ccccc2)CC1 the results were EPAC1 ag val 4%&5%.
`Cc1occc1C(=O)NCCN1Cc2ccccc2OC(c2ccccc2F)C1` (stereo unspecified) gave EPAC1 ag val 5%.
Screening CC(=O)C[C@H]1c2ccccc2S(=O)(=O)N1C1CCCC1 returned EPAC1 ag val -17%.
c1cncc(CNc2ccnc(-c3ccc4c(c3)OCO4)n2)c1 was read as EPAC1 ag val -13%.
`CN(C)Cc1ccccc1-c1cncnc1NCc1cccnc1` gave EPAC1 ag val -164%[inhibitor].
`N[C@@H](CCCP(=O)(O)O)C(=O)O` gave EPAC1 ag val -74%[inhibitor].
For Cc1cc(C)c2c(C)ccnc2c1 the results were EPAC1 ag val 26%.

More results:
For CO[C@H]1C[C@@H]2CC[C@@H](C)[C@@](O)(O2)C(=O)C(=O)N2CCCC[C@H]2C(=O)O[C@H](C(C)C[C@H]2CC[C@@H](O)[C@H](OC)C2)CC(=O)[C@H](C)/C=C(\C)[C@@H](O)[C@@H](OC)C(=O)[C@H](C)C[C@H](C)/C=C/C=C/C=C/1C (stereo partly specified) the results were EPAC1 ag val -18%.
COC(=O)c1c(OC)cc2c(c1C)Oc1c(Cl)c(O)c(Cl)c(C)c1C(=O)O2 was read as EPAC1 ag val -78%[inhibitor].
For CN(C)c1ncnc2ccc(-c3ccccc3C#N)cc12 the results were EPAC1 ag val -16%.
For CCC1CN(CCC(=O)NC2CCOC(C)(C)C2)Cc2cc(OC)ccc2O1 (stereo unspecified) the results were EPAC1 ag val -2%.
For COc1ccccc1-c1ccnc(-n2ncc(C(=O)NCc3cccnc3)c2C)n1 the results were EPAC1 ag val 4%.
`CC(NC(=O)C1CCOCC1)c1nnc2n1CCN(Cc1cc3c(cc1Cl)OCO3)CC2` (stereo unspecified) gave EPAC1 ag val -10%.
CC1=C(C(=O)OC(C)C)C(c2cccc([N+](=O)[O-])c2)C(C(=O)OC2CN(C(c3ccccc3)c3ccccc3)C2)=C(N)N1 (stereo unspecified) was read as EPAC1 ag val 100µM*.
c1ncc(-c2ccc3c(c2)OCO3)c(NCCc2cnc[nH]2)n1 was read as EPAC1 ag val -44%.
Screening Cc1cc2c(cc1S(N)(=O)=O)S(=O)(=O)CCC2 returned EPAC1 ag val 0%.
Screening CC[C@H]1CN2CCc3cc(OC)c(OC)cc3[C@H]2C[C@@H]1C[C@@H]1NCCc2cc(OC)c(OC)cc21 returned EPAC1 ag val -8%.
Screening NC1CCN(c2cccc(Cl)n2)CC1 returned EPAC1 ag val -13%&-8%&-18%.
COCCn1c(=O)c(-c2ccc(F)cc2)nc2cnc(OCc3ccccc3)nc21 was read as EPAC1 ag val -27%.
`Cc1cc(C)nc(S[C@@H]2C[C@@H](C(=O)N3CCCN(C)CC3)N(Cc3cc(F)ccc3F)C2)n1` gave EPAC1 ag val -5%.
CCN(CCO)CCCC(C)Nc1ccnc2cc(Cl)ccc12 (stereo unspecified) was read as EPAC1 ag val 11%&-45%.
For CCCCCCC[n+]1ccc(/C=C/c2c[nH]c3ccccc23)cc1 the results were EPAC1 ag val 100µM*.
For CSc1ccc2c(c1)[C@H](N1CCN(C)CC1)Cc1ccccc1S2 the results were EPAC1 ag val 7%.
Screening Nc1nc2c(nc(Br)n2C2CC(O)C(CO)O2)c(=O)[nH]1 (stereo unspecified) returned EPAC1 ag val 11%.
For COc1ncc2nc(C)c(=O)n(Cc3ccc(F)cc3)c2n1 the results were EPAC1 ag val -16%.
Screening CCCCCCC[n+]1ccc(/C=C/c2c(C)[nH]c3ccccc23)cc1 returned EPAC1 ag val 100µM*.
For CO[C@H]1[C@@H](O)[C@H](N)[C@@H](O[C@H]2O[C@H]([C@H](C)N)CC[C@H]2N)[C@H](O)[C@@H]1N(C)C(=O)CN the results were EPAC1 ag val 12%.
`CC/C=C\C[C@H]1C(=O)CC[C@@H]1CC(=O)O` gave EPAC1 ag val -1%.
Screening O=C(NCC1CCC2(CCN(Cc3ccc4ncccc4c3)CC2)O1)C1CCCO1 (stereo unspecified) returned EPAC1 ag val 13%.
Screening COc1ccc(Cc2cnc(N)nc2N)cc1OC returned EPAC1 ag val -27%.
Nc1nc(F)nc2c1ncn2[C@@H]1O[C@H](CO)[C@@H](O)[C@@H]1O was read as EPAC1 ag val 25%&-11%.
`CC(C)CN1CCC(=O)N(CCO)CC1` gave EPAC1 ag val inconclusive.
`CC(=O)N1CCC2(CCN(Cc3ccccc3)CC2)CC1` gave EPAC1 ag val -62%[inhibitor].
`Cc1cccc(CNc2ccnc(-c3ccoc3)n2)c1` gave EPAC1 ag val -81%[inhibitor].
`Cc1ccc(CN2[C@@H](c3ccccc3)COCCS2(=O)=O)cc1` gave EPAC1 ag val -20%.
For CCCN1CCC(=O)N([C@H](COc2ccccc2)CC(C)C)CC1 the results were EPAC1 ag val -17%.
For CS(=O)(=O)N1CCC2(CC1)CN(C(=O)Nc1ccccc1)C2 the results were EPAC1 ag val -25%.
CCOC(=O)C[C@H]1c2ccc(C(F)(F)F)cc2S(=O)(=O)N1C(C)C was read as EPAC1 ag val -56%[inhibitor].
N#C/C(=C\c1cc(Cl)cc(Cl)c1)c1cccnc1 was read as EPAC1 ag val -19%&-11%.
For Cc1noc(C)c1-c1ccc2ncnc(NCc3cccs3)c2c1 the results were EPAC1 ag val inconclusive.
For CC(C)=CCn1cnc2c1c(=O)n(C)c(=O)n2C the results were EPAC1 ag val 3%.
`CN1[C@@H]2CC(OC(=O)[C@H](CO)c3ccccc3)C[C@H]1[C@@H]1O[C@@H]12` (stereo partly specified) gave EPAC1 ag val -16%&-6%.
COc1ccc2[nH]cc(CCNc3cc(-c4ccccc4C(F)(F)F)ncn3)c2c1 was read as EPAC1 ag val 11%.
Screening CC(C)CN1CCC(=O)N([C@H](COc2ccccc2)Cc2ccccc2)CC1 returned EPAC1 ag val -50%[inhibitor].
`N#CCCn1c(=O)c(-c2cccs2)nc2cnc(Oc3cccc(Cl)c3)nc21` gave EPAC1 ag val 25%.
For FC(F)(F)c1ccccc1-c1nc(N2CCNCC2)c2ccccc2n1 the results were EPAC1 ag val -5%.
Screening CCC(=O)c1ccc2c(c1)N(CCCN(C)C)c1ccccc1S2 returned EPAC1 ag val 4%&-5%.
NC[C@](O)(CS(=O)(=O)O)c1ccc(Cl)cc1 was read as EPAC1 ag val 1%.
Screening Nc1nc2c(c(=O)[nH]1)N(C=O)C(CNc1ccc(C(=O)N[C@@H](CCC(=O)O)C(=O)O)cc1)CN2 (stereo partly specified) returned EPAC1 ag val -16%.
`Cc1ccc(C)c(CN2CCc3nnc(CNC(=O)c4cc(C)oc4C)n3CC2)c1` gave EPAC1 ag val 0%.
For O=C(Nc1ccc(C(=O)Nc2ccc(C(=O)Nc3ccc(S(=O)(=O)O)c4cc(S(=O)(=O)O)cc(S(=O)(=O)O)c34)cc2)cc1)Nc1ccc(C(=O)Nc2ccc(C(=O)Nc3ccc(S(=O)(=O)O)c4cc(S(=O)(=O)O)cc(S(=O)(=O)O)c34)cc2)cc1 the results were EPAC1 ag val -9%&-1%.
For CCOC(=O)C1CCCN(C(=O)c2cnn(-c3ncc4c(n3)-c3ccccc3CCC4)c2C2CC2)C1 (stereo unspecified) the results were EPAC1 ag val -8%.
`Cc1ncc2c(c1CNS(=O)(=O)N(C)C)CCN(C(=O)c1c(F)cccc1F)C2` gave EPAC1 ag val -3%.
COc1ccccc1C(=O)N(Cc1cc2cc3c(cc2nc1N(C)C)OCO3)CC1CCCO1 (stereo unspecified) was read as EPAC1 ag val 13%.
Screening Fc1ccc(Nc2ccnc(-c3ccc4c(c3)OCO4)n2)cc1 returned EPAC1 ag val 18%.
CN(Cc1cnc2ccccn12)C1CCN(c2cccc(NC(=O)c3cccnc3)c2)CC1 was read as EPAC1 ag val -4%.
`OC(CN1CCCCC1)c1cc(-c2ccccc2)on1` (stereo unspecified) gave EPAC1 ag val 12%.
COc1ccc(OC)c(-c2cc(Cl)c3c(c2)CC(CNC(=O)C(C)N2CCOCC2)O3)c1 (stereo unspecified) was read as EPAC1 ag val -7%.
For O=c1c(-c2ccccc2)nc2cnc(Oc3ccccc3)nc2n1C1CC1 the results were EPAC1 ag val -19%.
`O=C(c1ccncc1)N1CCC2(CC1)CN(C(c1ccccc1)c1ccccc1)C2` gave EPAC1 ag val 22%.
For COCCn1c(=O)c(C)nc2cnc(N(C)C)nc21 the results were EPAC1 ag val -7%.
Screening Cc1nc2cnc(N3CCOCC3)nc2n(C)c1=O returned EPAC1 ag val -25%.
Screening C[C@@](N)(C(=O)O)[C@@H]1C[C@@H]1C(=O)O returned EPAC1 ag val -26%.
CC(=O)OC1CC2C(C)(C)C(=O)C3OC3[C@]2(C)C2CC[C@@]3(C)C(c4ccoc4)OC(=O)C4OC43[C@]12C (stereo partly specified) was read as EPAC1 ag val -9%.
`COCCNc1ncnc2ccc(-c3ccccc3CN(C)C)cc12` gave EPAC1 ag val -7%.
